Mtb growth = Confirmatory growth inhibition assay against Mycobacterium tuberculosis H37Rv, potency (AID 1949); most inactive calls were filed without a number and no value below 0 was filed; inhibition, % at 10 µg/mL, or IC50 in µg/mL where a hit was titrated; 1.6% of 100,000 active;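 active = confirmed in a dose series; inconclusive = about 50% or more but not retested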;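 note: bacteria grown 7 days with compound before Alamar blue readout; 0% = untreated bacteria and 100% = reference antibiotic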
Numbers without * were called inactive; i = inactive; u = inconclusive. Only part of the results is shown. The share of hits here may be higher or lower than overall.

Structure	Mtb growth
O=S(=O)(Nc1ccc(S(=O)(=O)N2CCCCCC2)cc1)c1cccs1	i
C=C(C)Cn1c(=S)[nH]c2ccc(I)cc2c1=O	4.6%
CN(C)c1cc(C#N)c(C#N)cc1[N+](=O)[O-]	i
COc1ccc(CCNC(=O)CC2COc3ccccc3O2)cc1OC (stereo not given)	i
O=C(CN1C(=O)c2cccc3cccc1c23)Nc1ccc(C(F)(F)F)cc1	i
O=C(/C=C/c1ccc(F)cc1)Nc1ncc(Cc2ccc(F)cc2)s1	i
CCOC(=O)c1c(C)[nH]c2cc(Br)c(OC)cc12	i
O=C(NN1C(=O)C2CCCCC2C1=O)c1ccc(Cl)c(Cl)c1 (stereo not given)	i
COc1ccc(S(=O)(=O)NCc2ccccn2)c(Cl)c1Cl	i
C=CCn1c(SCC(=O)Nc2ccccc2CC)nnc1-c1cccc(C)c1	i
CCOC(=O)C1=C(C)N(C)C(C)=C(C(=O)OCC)C1c1ccc(C)s1	i
O=C(Nc1ccc(F)cc1F)C1CCCC1	i
COC(=O)c1ccccc1NC(=O)CC(O)(C(F)(F)F)C(F)(F)F	i
COC(=O)COc1ccc(S(=O)(=O)Nc2ccc(Br)cc2F)cc1	i
Cc1ccc(C(=O)n2cc(C(=S)N3CCOCC3)c3ccccc32)cc1	i
O=S(=O)(c1ccc(Cl)cc1)N1CCN(C(=S)NCC2CCCO2)CC1 (stereo not given)	i
CCC(=O)Nc1cccc(NC(=S)NC(=O)c2ccc(OCc3ccccc3)cc2)c1	0.0%
COCc1cc(C2SCC(=O)Nc3c2c(C)nn3-c2ccccc2)ccc1OC (stereo not given)	i
COc1ccc(NC(=O)Nc2ccc(C)cc2Br)cc1OC	i
Cc1cc(Br)c(NC(=S)NC(=O)c2ccccc2F)cc1C	i
Cc1cccc(C(CC(=O)NCc2ccco2)c2ccccc2)c1O (stereo not given)	i
Cc1ccc(C)c(CSc2nc3ccccc3[nH]2)c1	5.2%
COCCCNC(=O)c1ccc(N(Cc2ccc(C)cc2)S(C)(=O)=O)cc1	i
COC(=O)Cc1c(C)c2ccc(OCc3ccc(Br)cc3)cc2oc1=O	i
O=C(NCCCCc1ccccc1)c1ccc(Br)o1	i
Cc1nnc2c(-c3ccccc3)nc3ccccc3n12	2.4%
Cc1ccc(C)c(N2CCN(S(=O)(=O)c3cc(Cl)c(Cl)cc3Cl)CC2)c1	i
CCn1c(SCC(=O)Nc2cccc(SC)c2)nnc1-c1ccccc1Cl	i
COc1ccc(CC(=O)NCc2nnc(SCC(=O)Nc3nc(-c4ccccc4)c(C)s3)n2C)cc1	i
COc1ccc(NC(=O)C(=O)NCC(=O)Nc2cccc(C(F)(F)F)c2)cc1	i
CCNC(=O)c1cc(-c2ccc(OCC)cc2)nc2ccccc12	i
CC12CCC(C(=O)NNC(=O)c3ccc(F)cc3)(OC1=O)C2(C)C (stereo not given)	i
Cc1nc2ccc(NC(=O)c3ccc(S(=O)(=O)N4CCCCC4)cc3)cc2s1	i
CCCOc1ccccc1N1C(=O)CC(Nc2ccc(C)cc2)C1=O (stereo not given)	i
COc1ccc(C(=O)c2ccccc2Cl)cc1OC	i
CCOC(=O)c1ccc(CNC(=O)CSc2nnc(CSc3nc(C)cc(C)n3)n2-c2ccccc2)cc1	i
COc1ccc(NC(=O)NNC(=O)c2ccc(C)c(C)c2)cc1	i
CCOC(=O)c1ccc(NC(=O)NC(C)C2CCCO2)cc1 (stereo not given)	i
Cn1c(=O)n(C)c2cc([N+](=O)[O-])c(N3CCN(C(=O)c4ccc(Cl)cc4)CC3)cc21	i
COc1ccc(COc2cc(C)c3c(c2)oc(=O)c2ccccc23)cc1	i
COc1cc(C=O)ccc1OC(=O)c1ccncc1	i
Cc1ccc(-c2csc(NC(=O)CSc3nnc(-c4ccccc4C)n3C)n2)cc1	i
CC(C)OC(=O)c1cc(NC(=O)Nc2cccc([N+](=O)[O-])c2)cc(C(=O)OC(C)C)c1	47.1%
COc1ccc(S(=O)(=O)N2CCN(C3CCN(Cc4ccccc4)CC3)CC2)cc1	i
COc1ccc(Cl)cc1NC(=O)COc1ccc(S(=O)(=O)NCC(C)C)cc1Cl	i
Cc1cc(Nc2ccc(Cl)cc2)nc(NCc2ccccc2)n1	1.34µg/mL*
COc1ccc(C(=O)COC(=O)c2ccc(NC(C)=O)cc2)cc1	i
COc1cccc(OC)c1C(=O)NC(=S)Nc1ccc(Br)cn1	i
O=C(Nc1ccc(C(=O)O)cc1)/C(=C\c1ccc([N+](=O)[O-])cc1)NC(=O)c1ccccc1Br	i
O=C(Nc1ccccc1C(F)(F)F)c1ccc(CSc2ccc(Cl)cc2)cc1	u

(next part)
Structure	Mtb growth
Fc1cccc(Cl)c1CSCCNC(=S)Nc1ccccc1	u
CCC(C)c1ccccc1NC(=O)c1cc(Br)ccc1OC (stereo not given)	10.0%
O=C(COC(=O)c1ccc(-c2nnc(-c3ccccc3)o2)cc1)c1ccccc1	i
OCc1ccccc1OCCOc1ccc(Cl)c2cccnc12	i
COc1cc(C(=O)NC(=S)Nc2ccc(N3CCCC3)cc2)ccc1OCc1ccc(Cl)cc1	8.2%
N/C(=N\OC(=O)COc1ccc2ccccc2c1Br)c1ccccn1	i
Cc1cc(C)c(C)c(OCC(=O)NCCCN2CCOCC2)c1	i
CCN(CC)S(=O)(=O)c1ccc(NC(=O)c2ccc(CN(c3ccccc3)S(C)(=O)=O)cc2)cc1	i
Cc1cccc(Nc2nc(-c3ccccn3)cs2)n1	<0.1µg/mL*
Cc1ccc(S(=O)(=O)Nc2cccc(N(C)S(C)(=O)=O)c2)cc1	i
Cc1ccc(S(=O)(=O)N(CC(N)=O)Cc2ccc(Br)cc2)cc1	i
CC(C(=O)Nc1ccc(C23CC4CC(CC(C4)C2)C3)cc1)N(c1ccccc1)S(C)(=O)=O (stereo not given)	i
CCOC(=O)c1cc(-c2nnc(-c3ccc(OC)c(OC)c3)o2)c(C)nc1C	i
O=C(CCc1ccccc1)Nc1ccc2c3c(cccc13)C(=O)NC2=O	46.8%
O=C(Nc1ccc(OC(F)(F)F)cc1)c1ccc(NC(=O)c2ccco2)cc1	0.7%
COc1ccc(CC(=O)Oc2c(C)cc(Br)cc2C)cc1	3.4%
COC(=O)c1ccc(SC2CCCCC2)c([N+](=O)[O-])c1	i
CCCOc1cccc(C2c3c(oc4ccc(F)cc4c3=O)C(=O)N2Cc2ccc(OC)cc2)c1 (stereo not given)	2.0%
O=c1c2ccccc2cnn1Cc1cccc(Br)c1	i
O=C(CC1(O)C(=O)Nc2ccccc21)c1ccc(-n2cccc2)cc1 (stereo not given)	0.2%

Among those listed so far, these contain an aryl thioether with sulfur outside any ring.
Structure	Mtb growth
C=CCn1c(SCC(=O)Nc2ccccc2CC)nnc1-c1cccc(C)c1	i
Cc1ccc(C)c(CSc2nc3ccccc3[nH]2)c1	5.2%
CCn1c(SCC(=O)Nc2cccc(SC)c2)nnc1-c1ccccc1Cl	i
COc1ccc(CC(=O)NCc2nnc(SCC(=O)Nc3nc(-c4ccccc4)c(C)s3)n2C)cc1	i
CCOC(=O)c1ccc(CNC(=O)CSc2nnc(CSc3nc(C)cc(C)n3)n2-c2ccccc2)cc1	i
Cc1ccc(-c2csc(NC(=O)CSc3nnc(-c4ccccc4C)n3C)n2)cc1	i
O=C(Nc1ccccc1C(F)(F)F)c1ccc(CSc2ccc(Cl)cc2)cc1	u
COC(=O)c1ccc(SC2CCCCC2)c([N+](=O)[O-])c1	i

Later entries
Structure	Mtb growth
CC(=O)c1cccc(N(CC(=O)NC2CC3CCC2C3)S(C)(=O)=O)c1 (stereo not given)	i
Cc1ccc(NC(=O)c2ccc(NC(=O)C3COc4ccccc4O3)cc2)cc1 (stereo not given)	3.8%
COC(=O)c1cc(NC(=S)Nc2ccccn2)cc(C(=O)OC)c1	i
CCc1nnc(NC(=O)COc2ccccc2CC)s1	i
CCc1ccc(C(=O)NCc2ccncc2)s1	i
CCCCOc1ccc(C(=O)Nc2ccc(Br)cc2C)cc1	i
CCCN(CCC)S(=O)(=O)c1ccc(NC(=O)Cc2ccc(Br)cc2)cc1	i
N#Cc1ccc(C(=O)Nc2ccc(I)cc2C(F)(F)F)c(F)c1	i
Cc1nnc(OCc2nc3ccccc3n2C)c2ccccc12	i
CCc1[nH]nc2c1C(c1c[nH]c3ccccc13)C(C#N)=C(N)O2 (stereo not given)	2.4%
Cc1ccc(C(=O)NCc2ccc(Cl)c(Cl)c2)cc1C	i
COc1ccc(CC(=O)NC2CCC(NC(=O)Cc3ccc(OC)cc3)CC2)cc1 (stereo not given)	i
O=C(COc1ccc(Cl)cc1Cl)NCC1CCCO1 (stereo not given)	i
Cc1oc(C(=O)O)cc1COc1ccc2c3c(c(=O)oc2c1C)CCCC3	i
O=C(CSc1ccccc1)Nc1ccc(S(=O)(=O)NCCc2ccccc2)cc1	i
CCn1c(SCC(=O)N2CCOCC2)nc2scc(-c3ccc(Cl)cc3)c2c1=O	i
O=C(CN1C(=O)c2cccc3cccc1c23)NCc1ccccc1Cl	i
Cc1ccc2nsnc2c1S(=O)(=O)Nc1cccc2cccnc12	0.31µg/mL*
CC(C)C(NC(=O)COc1ccccc1)C(=O)O (stereo not given)	i
COc1ccc(S(=O)(=O)N2CCC(C(=O)Nc3c(F)cccc3F)CC2)cc1OC	i
COc1cc(Cl)c(C)cc1NC(=O)CCC1CCCCC1	32.3%
O=C(Oc1ccccc1NS(=O)(=O)c1ccccc1)c1ccccc1	i
COc1ccc(NC(=O)COc2ccc(Br)cc2C)cc1Cl	i
CCc1cc(=O)oc2cc(OC)cc(OC)c12	i
CNS(=O)(=O)c1ccc2nc(NC(=O)c3ccncc3)sc2c1	i
O=C(NCCC1=CCCCC1)c1cccc(Cl)c1	i
CCOC(=O)COc1c(I)cc(C=O)cc1OC	i
CSc1nc(-c2ccc(Cl)cc2)nn1C(=O)c1ccco1	i
Cc1cc(C)n(-c2ccc(C)c(Cl)c2)n1	i
CC1CCN(S(=O)(=O)c2ccc(C(=O)Nc3ccc4c(c3)OCO4)cc2)CC1	i
O=C(NCc1ccc(Cl)cc1)C1CC(=O)N(c2ccc(F)cc2)C1 (stereo not given)	i
CC1=C(C(=O)Nc2ccccc2F)C(c2ccc(N(C)C)cc2)NC(=S)N1 (stereo not given)	i
CCn1c2ccccc2c2cc(NC(=O)c3ccccc3Br)ccc21	i
CCOC(=O)CC(N)c1ccc(OC)c(OCC)c1 (stereo not given)	i
CCn1c(-c2ccco2)nc2ccccc21	2.39µg/mL*
CCOC(=O)Oc1ccc2c(=O)c(Oc3cccc(C)c3)coc2c1	i
C=CCOc1c(Cl)cc(C2C(C#N)=C(N)Oc3cc(O)ccc32)cc1OC (stereo not given)	i
CCOC(=O)c1ccc(NC(=S)NC(C)c2ccc(C)c(C)c2)cc1 (stereo not given)	22.9%
Oc1ccc(-c2cn3c4ccccc4n(CCN4CCOCC4)c3n2)cc1	i
Cc1nnc(SCC(=O)Nc2ccc(-c3nc4ccccc4s3)cc2)s1	i
CSc1c(C#N)c(N)c(C#N)c2c1COC(C)(C)C2	5.1%
CCC(Sc1nnnn1-c1ccccc1)C(=O)N1c2ccccc2Sc2ccccc21 (stereo not given)	i
O=[N+]([O-])c1cccc(NC(=S)NCCn2cc(Cl)cn2)c1	33.2%
Cn1c(-c2ccccc2)cnc1SCC(=O)Nc1ccc2c3c(cccc13)CC2	u
O=C(NC(=S)Nc1ccccc1N1CCOCC1)c1ccc(-c2cc(Cl)ccc2Cl)o1	i
CC1CCCN(Cc2c(O)ccc3c(=O)c(-c4ccccc4)coc23)C1 (stereo not given)	1.1%
COc1cc(NC(=O)c2c(Cl)cccc2Cl)cc(OC)c1	i
CCOc1ccc(S(=O)(=O)N2CCN(CC)CC2)c2ccccc12	i
Cc1cc(C(F)(F)F)n2nc(C(=O)O)c(Cl)c2n1	i
N#Cc1sc2nc(-c3cccs3)cc(-c3ccccc3)c2c1N	4.0%

Continuation:
Structure	Mtb growth
CC(=O)c1sc(NC(=O)c2cc(F)c(F)cc2Cl)nc1C	0.0%
COCCCNCCCCOc1ccc(OCc2ccccc2)cc1	i
COc1ccccc1N1CCN(C(=S)Nc2cccnc2)CC1	i
Cc1ccc(OCC(=O)Nc2nc(-c3ccc(Cl)cc3)cs2)c(C)c1	i
Cc1cc(=O)[nH]c(SCC(=O)Nc2ccc(Br)cn2)n1	i
Cc1cc(C)c(S(=O)(=O)N(CC(=O)Nc2cc([N+](=O)[O-])ccc2C)Cc2ccccc2)c(C)c1	13.0%
CCOC(=O)CSc1nc2ccc(I)cc2c(=O)n1-c1ccc(C)cc1	i
Cc1nc2c(-c3cccc4ccccc34)c(Cc3ccccc3)[nH]n2c(=O)c1Cl	i
COc1ccc(OC)c(C(C)NC(=O)c2ccco2)c1 (stereo not given)	2.3%
C/C=C/c1ccc(OCCOc2cccc3ccc(C)nc23)c(OC)c1	7.9%
COc1ccc(C)cc1NC(=O)C(C)NS(=O)(=O)c1ccc(C)cc1 (stereo not given)	i
O=[N+]([O-])c1cccc(-c2nc(N3CCOCC3)c3ccccc3n2)c1	i
O=C(N/N=C\c1c(O)ccc2ccccc12)c1cc(-c2ccccc2)nc2ccccc12	u
CCOC(=O)N1CCN(C(=O)c2sc3ccccc3c2Cl)CC1	i
COc1ccccc1CNC(=O)CN(c1cc(Cl)ccc1OC)S(C)(=O)=O	i

High-throughput results as filed in PubChem.
